HNF4A DNA FP – change in binding of human HNF4 alpha to DNA; AID 1224865; HNF4a-FITC DNA binding, fluorescence polarization, 1 h; P41235; activity change, % at 10 µM; 360,000 tested, 0.3% active; in the data active means activity change above about 30%, passing the limit was not always enough;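 further: controls were the assay level and a saturating level of protein; the project sought stronger binding though the title names inhibitors; some compounds called inactive have numbers as strong as hits; positive values seem to mean higher polarization but the record does not say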
Ecoli rRNA inh – inhibitors of bacterial rRNA selective over humanized ribosomes; E. coli WT GFP vs humanized-ribosome RFP mutants, fluorescence, 24 h; stronger effect = lower value; DMSO median 0, no signal -100; GFP signal change (wild-type ribosome), % (concentration not given with the values); 350,000 tested, 1.6% active; AID 720706;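 active means significant combined selectivity score with lowered wild-type GFP, culture density cut under 30%, mutant RFP and density less affected; inactive means any of these conditions unmet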; further: one replicate is shown; some compounds called inactive have numbers as strong as hits
UCH37 DUB inh – human UCH37 deubiquitinating enzyme inhibition; Q9Y5K5; purified proteasome/UCH37, Ub-AMC cleavage fluorescence; 330,000 tested, 0.33% active; inhibition, % (concentration not given with the values);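 active means mean of two replicates above 20%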;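 further: 0% = compound-free wells with enzyme and 100% = wells lacking proteasome; stock transfer was 100 nL into about 20 µL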
Target sequence (Q9Y5K5 whole entry, looked up): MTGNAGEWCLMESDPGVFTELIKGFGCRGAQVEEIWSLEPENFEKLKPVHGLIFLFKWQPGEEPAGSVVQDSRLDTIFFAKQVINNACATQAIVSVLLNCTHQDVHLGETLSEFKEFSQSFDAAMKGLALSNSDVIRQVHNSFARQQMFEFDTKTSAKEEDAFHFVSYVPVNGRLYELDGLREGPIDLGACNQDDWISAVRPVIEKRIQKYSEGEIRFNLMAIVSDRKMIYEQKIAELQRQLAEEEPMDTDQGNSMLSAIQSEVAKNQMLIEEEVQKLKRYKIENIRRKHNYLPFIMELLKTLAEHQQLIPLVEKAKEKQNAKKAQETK
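Material: Human UCH37 enzyme supplied as purified proteasome complex | Schedule: 30 min compound-proteasome preincubation then 25 min substrate reaction, room temperature | Detection: AMC fluorescence from Ub-AMC cleavage, excitation 355 nm, emission 460 nm | Benchmarks: Wells without proteasome as full block, compound-free enzyme plus substrate as uninhibited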
Ecoli growth – blocks Escherichia coli growth | OD600, 23 h; stronger effect = lower value | OD600 absorbance (no concentration beside the values) | 330,000 tested, 0.21% active;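 active means OD600 absorbance below the run mean of sample wells minus 3.6 SD, in any replicate, cut at about 0.56 in these data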;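 further: stock transfer was 300 nL into about 60 µL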
ALR inh – blocks human ALR sulfhydryl oxidase activity | P55789 | purified ALR, DTT oxidation, H2O2 HRP-luminol luminescence | inhibition, % (no concentration beside the values) | 290,000 tested, 3.8% active | AID 485317;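 active means mean and each replicate at 75% or more; inconclusive means only one of the two met; inactive means neither met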;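 further: stock transfer was 7.5 nL into about 7.5 µL; 0% = neutral wells and 100% = wells with inactivated enzyme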
FGF22 binding – binders of recombinant human FGF22 by thermal shift; SYPRO orange fluorescence; percent of sucrose octasulfate shift, DMSO zero; calls only at 9.99 µM; 340,000 tested, 1.5% active;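 active means melting point raised past a set limit in the mean and every replicate; inconclusive means no clear call; three in four hits are not shown here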
Target sequence (Q9HCT0 whole entry, looked up): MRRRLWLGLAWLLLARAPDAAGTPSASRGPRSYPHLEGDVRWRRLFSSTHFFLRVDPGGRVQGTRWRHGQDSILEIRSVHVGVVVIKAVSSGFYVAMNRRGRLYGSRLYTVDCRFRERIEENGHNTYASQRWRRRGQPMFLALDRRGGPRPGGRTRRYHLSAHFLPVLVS
B2AR ag – activates human beta-2 adrenergic receptor causing internalization | 340,000 tested, 0.43% active | Am2.2-beta2AR cells, FAP receptor internalization, flow cytometry; reference of the scale not given here | P07550 | response, % (test concentration not listed) | AID 504454;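 active means response above a set limit, near 3 SD of response in nonfluorescent compounds, cut at about 42% in these data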;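 further: stock transfer was 100 nL into about 11 µL; a reference agonist was the positive control; negative values mostly stem from fluorescent compounds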
Target sequence (P07550 whole entry, looked up): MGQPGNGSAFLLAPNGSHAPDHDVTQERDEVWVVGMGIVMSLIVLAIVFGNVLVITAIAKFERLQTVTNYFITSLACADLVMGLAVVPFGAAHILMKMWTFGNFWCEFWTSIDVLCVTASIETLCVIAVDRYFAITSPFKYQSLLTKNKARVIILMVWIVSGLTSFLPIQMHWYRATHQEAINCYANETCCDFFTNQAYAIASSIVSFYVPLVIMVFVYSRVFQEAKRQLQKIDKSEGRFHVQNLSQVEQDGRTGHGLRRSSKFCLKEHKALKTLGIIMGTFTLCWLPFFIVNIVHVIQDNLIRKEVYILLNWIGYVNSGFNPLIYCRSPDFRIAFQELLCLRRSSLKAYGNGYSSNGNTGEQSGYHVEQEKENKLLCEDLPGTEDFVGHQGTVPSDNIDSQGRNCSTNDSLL
Ecoli rRNA inh OD600 – recorded beside Ecoli rRNA inh, whose call it bears; OD600 change, %; measured here: OD600 growth;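 optical density of the mix in the first replicate; 0 = DMSO median and -100 = no signal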
Ecoli rRNA inh RFP – recorded beside Ecoli rRNA inh, whose call it bears; RFP signal change, %; measured here: RFP humanized mutant strains;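 first replicate; 0 = DMSO median and -100 = no signal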
* hit, by the source's call; i = inactive; ? = inconclusive; . = not tested or not shown; + = active, no number. This is a subset, so the mix of outcomes need not match the whole.

Ecoli rRNA inh,UCH37 DUB inh,Ecoli rRNA inh OD600,B2AR ag,Ecoli growth,ALR inh,HNF4A DNA FP,Ecoli rRNA inh RFP,FGF22 binding,SMILES
2,6.3,4,1,0.71,.,2.1,-0.7,i,C=C(C)c1cccc(C(C)(C)NC(=O)N2CCN(c3ccccc3)CC2)c1
-12,.,-34,.,.,.,-4.0,10,i,Cc1cc(C)c(NC(=O)CNC(=O)c2cc(C3CC3)nc3c2cnn3C(C)C)c(C)c1
11,2.6,2,-1,0.69,-2,-1.0,1.7,i,Cc1ccc(C(=O)COc2ncnc3cc(Cl)ccc23)cc1
.,3.1,.,3,0.68,-2,1.1,.,.,CC(C)c1nc2ccc(NC(=O)C34CC5CC(CC(C5)C3)C4)cc2[nH]1
.,2.1,.,0,0.68,-2,-0.5,.,.,COc1ccc(/C=C/C(=O)OCC(=O)c2c(N)n(C)c(=O)n(C)c2=O)cc1
3,0.7,0,2,0.69,-2,-0.6,4.6,i,CCS(=O)(=O)n1nc(-c2ccccc2)nc1SC
.,5.9,.,14,0.72,16,-1.5,.,.,Cc1ccc(C(=O)c2coc3c2C(=O)C(=O)c2ccccc2-3)cc1
2,.,9,-8,.,.,-1.0,-2.7,i,S=C1CC2CCCC(C2)N1 (stereo unspecified)
.,1.7,.,18,0.75,-3,0.5,.,.,COc1ccc(C2(C(=O)Nc3cc(C)on3)CCOCC2)cc1
-2,-0.3,-20,10,0.72,-2,-0.8,2.0,i,COc1ccc(S(=O)(=O)Cc2ccc(C(=O)N3CCN(c4cc(C)ccc4C)CC3)o2)cc1
.,-2.2,.,-13,0.77,-9,40*,.,.,CSc1nsc(/C=C/Nc2ccc(Cl)cc2)c1C#N
0,1.6,3,0,0.69,8,-0.9,0.5,i,NC(=O)C1CCN(C(=O)c2ccc(NS(=O)(=O)c3ccc(F)cc3)cc2)CC1

A section taken from the entries so far, as a working copy:
Ecoli rRNA inh,UCH37 DUB inh,Ecoli rRNA inh OD600,B2AR ag,Ecoli growth,ALR inh,HNF4A DNA FP,Ecoli rRNA inh RFP,FGF22 binding,SMILES
.,1.7,.,18,0.75,-3,0.5,.,.,COc1ccc(C2(C(=O)Nc3cc(C)on3)CCOCC2)cc1
-2,-0.3,-20,10,0.72,-2,-0.8,2.0,i,COc1ccc(S(=O)(=O)Cc2ccc(C(=O)N3CCN(c4cc(C)ccc4C)CC3)o2)cc1

Other structures.
Ecoli rRNA inh,UCH37 DUB inh,Ecoli rRNA inh OD600,B2AR ag,Ecoli growth,ALR inh,HNF4A DNA FP,Ecoli rRNA inh RFP,FGF22 binding,SMILES
3,0.9,6,-8,0.67,7,-1.3,0.3,i,CCCCN1C(=O)/C(=C(/C#N)C(=O)N2CCCC2)c2ccccc21
2,5.3,6,-4,0.71,30,-0.1,-1.2,i,O=C1/C(=C/c2ccc(F)cc2)CCC1C1CCCC1 (stereo unspecified)
-3,-3.8,-8,-2,0.69,-4,0.1,-1.4,i,CC(=O)NC(CC(=O)OCC(=O)c1cc(C)ccc1C)c1ccccc1 (stereo unspecified)
.,6.8,.,-2,0.69,8,3.5,.,.,CCOC(CNC(=O)c1ccc(N2CCc3ccccc32)c([N+](=O)[O-])c1)OCC
.,6.6,.,-7,0.71,-19,0.6,.,.,CCCCC(=O)Nc1cccc(NC(=S)NC(=O)Cc2ccccc2)c1
0,3.3,-14,1,0.68,3,1.7,-6.0,i,COc1c(Cl)cc(Cl)cc1CNCc1ccccc1
7,.,6,5,.,-6,0.8,-0.7,i,COc1ccc(NC(=O)c2cccc(N3C(=O)C4C5C=CC(C5)C4C3=O)c2)cc1Cl (stereo unspecified)
.,-5.3,.,11,0.7,-1,1.2,.,.,COc1ccc2oc(=O)c(C(=O)N3CCN(c4ccccc4C)CC3)cc2c1
.,4.1,.,-3,0.69,64,-6.6,.,.,COc1cc(CN(C(=O)c2ccco2)c2ccc(C)cc2)ccc1O
.,4.0,.,-8,0.76,-8,3.7,.,.,COc1cc(-c2nc(S(=O)(=O)c3ccc(Cl)cc3)c(N3CCOCC3)o2)cc(OC)c1OC
-9,-15,5,0,0.71,-5,3.7,-5.4,i,O=C(/C=C/Nc1ccc(S(=O)(=O)Nc2cnc3ccccc3n2)cc1)c1ccccc1
4,5.4,5,6,0.68,-3,2.4,2.3,i,NC(=O)C[n+]1cccc(C(N)=O)c1
2,2.8,-22,5,0.66,1,0.8,8.0,i,O=c1[nH]c(C2CCN(S(=O)(=O)c3ccccc3C(F)(F)F)CC2)nc2c1nnn2Cc1cccc(F)c1
.,.,.,22,.,15,1.5,.,.,COc1cc(C(=O)N/N=C/c2cc([N+](=O)[O-])cs2)cc(OC)c1OC
.,6.0,.,-4,0.68,-1,-0.4,.,.,Clc1cccc(-c2sc(Nc3ccccc3)n[n+]2-c2ccccc2)c1Cl
-14,-21,-10,0,0.68,-6,0.6,14,i,CCCn1nc2cc(C(=O)NCCCCc3ccccc3)ccc2c1OCC
-15,2.2,-20,-23,0.63,-4,-4.9,-0.5,i,O=C(c1cc(F)ccc1F)C1CCCN(C(=O)c2cccs2)C1 (stereo unspecified)
.,.,.,-3,.,-5,4.3,.,.,O=C(CN1CCN(S(=O)(=O)c2ccc(Br)cc2)CC1)N/N=C/c1cccs1
4,-7.0,6,-7,0.7,40,2.9,1.8,i,CN(CCc1ccccn1)C(=O)CCC1CCCN(C(=O)c2cccc(N(C)C)c2)C1 (stereo unspecified)
9,-1.9,8,-10,0.67,-1,-3.5,-3.6,i,CCOC(=O)c1c(C)c(C(=O)NCc2cccs2)c(C)n1CC
6,-240,8,-4,0.65,1,1.4,-1.3,i,COCc1cc(C)nc(NC2CC(C)(C)NC(C)(C)C2)c1C#N
.,-0.8,.,0,0.71,-2,2.5,.,.,O=C(NNc1cccc(Cl)n1)c1c(Cl)cccc1Cl
-2,-0.4,-1,4,0.71,.,0.4,-4.3,i,Cc1ccc(S(=O)(=O)CCC(=O)OCC(=O)NC(=O)c2ccccc2)cc1
-46,5.5,-72,13,0.7,?,-3.5,-8.1,+,CCc1nnc(NS(=O)(=O)c2ccc(NC(=O)c3ccc(Br)cc3)cc2)s1

3 entries out of the list above, arranged by their value in Ecoli rRNA inh, descending:
Ecoli rRNA inh,UCH37 DUB inh,Ecoli rRNA inh OD600,B2AR ag,Ecoli growth,ALR inh,HNF4A DNA FP,Ecoli rRNA inh RFP,FGF22 binding,SMILES
7,.,6,5,.,-6,0.8,-0.7,i,COc1ccc(NC(=O)c2cccc(N3C(=O)C4C5C=CC(C5)C4C3=O)c2)cc1Cl (stereo unspecified)
6,-240,8,-4,0.65,1,1.4,-1.3,i,COCc1cc(C)nc(NC2CC(C)(C)NC(C)(C)C2)c1C#N
0,3.3,-14,1,0.68,3,1.7,-6.0,i,COc1c(Cl)cc(Cl)cc1CNCc1ccccc1

(list continues)
Ecoli rRNA inh,UCH37 DUB inh,Ecoli rRNA inh OD600,B2AR ag,Ecoli growth,ALR inh,HNF4A DNA FP,Ecoli rRNA inh RFP,FGF22 binding,SMILES
.,4.2,.,1,.,1,-0.3,.,.,CCC1=C2CC[C@H]3C(=O)N(CC)C(=O)[C@H]3[C@H]2[C@@]2(Cc3ccccc3)C(=O)N(Cc3ccccc3)C(=O)N2C1=O
-30,1.5,-34,-1,0.67,0,-1.9,-4.6,i,COc1ccccc1CC(=O)N1CCCc2cc(C)ccc21
.,1.6,.,-2,0.74,-3,-2.6,.,.,COc1ccc(C2C(C(=O)N3CCOCC3)c3ccccc3C(=O)N2c2ccc(OC)cc2)cc1 (stereo unspecified)
.,5.2,.,2,0.53*,-14,-1.6,.,.,Oc1c(CN2CCN(c3ccccn3)CC2)cc(Cl)c2cccnc12
.,2.3,.,-6,0.68,-3,0.3,.,i,O=C(NC1CCCC1)c1cc(-c2ccc(Cl)cc2)on1
-1,-102,-8,-5,0.73,.,-0.2,-1.9,i,COc1ccc(S(=O)(=O)Nc2nc3ccccc3nc2NCC2CCCO2)cc1 (stereo unspecified)
13,2.3,-3,-7,0.73,-8,1.8,4.6,i,COc1cc2c(cc1OC)C(c1ccccc1)N(C(=O)CSCC(=O)O)CC2 (stereo unspecified)
.,.,.,5,.,-17,5.8,.,.,Cc1ccc(/C=N/NC(=O)c2cc3c(ccc4ccccc43)o2)cc1[N+](=O)[O-]
-1,0.5,-9,8,0.71,-10,9.8,-0.3,i,COC(=O)C(Cc1c[nH]c2ccccc12)NC(=O)c1cc(-c2ccc(OC)c(OC)c2)oc1C (stereo unspecified)
.,0.0,.,7,0.73,-8,-1.3,.,.,CC1=C(C)CC(C(=O)NCc2ccc3c(c2)OCO3)C(C(=O)O)C1 (stereo unspecified)
-18,4.2,-31,5,0.73,-3,-4.0,-3.4,i,COc1ccc(CC2(CO)CCN(S(=O)(=O)c3sccc3C)CC2)cc1
0,5.1,-2,38,0.68,.,5.3,-0.8,i,CN(C)CCCN(C(=O)/C=C/c1cccs1)c1nc2c(F)cccc2s1
.,2.5,.,.,0.69,6,.,.,.,O=C(c1ccc(Cl)nc1)c1cccs1
8,-0.3,11,-12,0.66,0,0.0,0.1,i,COc1ccccc1CNC(=O)CCCNC(=O)Cn1cnc2sc(C)c(C)c2c1=O

Sorted by length of the SMILES (low to high): five of the compounds above.
Ecoli rRNA inh,UCH37 DUB inh,Ecoli rRNA inh OD600,B2AR ag,Ecoli growth,ALR inh,HNF4A DNA FP,Ecoli rRNA inh RFP,FGF22 binding,SMILES
.,2.5,.,.,0.69,6,.,.,.,O=C(c1ccc(Cl)nc1)c1cccs1
13,2.3,-3,-7,0.73,-8,1.8,4.6,i,COc1cc2c(cc1OC)C(c1ccccc1)N(C(=O)CSCC(=O)O)CC2 (stereo unspecified)
8,-0.3,11,-12,0.66,0,0.0,0.1,i,COc1ccccc1CNC(=O)CCCNC(=O)Cn1cnc2sc(C)c(C)c2c1=O
.,1.6,.,-2,0.74,-3,-2.6,.,.,COc1ccc(C2C(C(=O)N3CCOCC3)c3ccccc3C(=O)N2c2ccc(OC)cc2)cc1 (stereo unspecified)
-1,0.5,-9,8,0.71,-10,9.8,-0.3,i,COC(=O)C(Cc1c[nH]c2ccccc12)NC(=O)c1cc(-c2ccc(OC)c(OC)c2)oc1C (stereo unspecified)

Assay outcomes: PubChem BioAssay, several laboratories
